NPYLR7 ag – mosquito NPYLR7 agonism; activation, % at 10 µM; AID 1259423; 270,000 compounds, 0.15% hits; HEK293T NPYLR7/Galpha15, GCaMP6s calcium fluorescence; in the data active = activation above about 40%;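 also: 0% = vehicle and 100% = reference agonist at the receptor; some compounds past the cut are filed as inactive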
NPYLR7 ag max-min – recorded beside NPYLR7 ag, whose call it bears; activation, %; measured here: Max-Min RFU normalised activation; some inactives read as strong as hits;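 span of the calcium signal over five minutes; 0% = vehicle and 100% = native peptide agonist; compound fluorescence can raise it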
An asterisk follows results filed as active; & = joins results of further samples. Only part of the results is shown, so the mix of outcomes need not match the whole.

no.	Structure	NPYLR7 ag	NPYLR7 ag max-min
1	COc1ccc(OCCNC(=O)c2ccc3nc(C)c(N(C)CC4CCCCC4)n3c2)cc1	-3	-6
2	CCn1c(SCC(=O)N/N=C\c2ccccn2)nc2ccccc21	-1	2
3	CCOC1CC(NC(=O)c2cccc(NC(=O)c3ccco3)c2)C12CCCCC2 (stereo unspecified)	3	0
4	O=C(CN1CCOc2ccccc2C1)NCc1cccnc1-n1ccnc1	-4	-6
5	COc1ccc(-c2cnc(CN(C)c3ccccc3F)o2)cc1	13	9
6	CC(C)N1CCCC(C(=O)Nc2ccccc2Oc2ccccc2)CC1 (stereo unspecified)	2	2
7	COCCN(Cc1ccncc1)Cc1ccc(C)cc1	5	3
8	COc1ccc(Cl)c2sc(N(Cc3cccnc3)C(=O)C3=COCCO3)nc12	11	6
9	Cc1ccc(OCC(=O)N(CC(N)=O)C2CCCC2)cc1	17	15
10	COc1cc(/C=C/C(=O)Nc2c3c(nn2C(C)(C)C)CSC3)cc(OC)c1OC	-4	-6
11	CC(C)c1[nH]n(-c2ccc(F)cc2)c(=O)c1C1=C(N2CCCC2)C(=O)N(CC2CCCO2)C1=O (stereo unspecified)	26	36
12	COc1cc(-c2ccc(S(N)(=O)=O)cc2F)cc(OC)c1OC	-2	-4
13	CC(C)(C)c1ncc2c(n1)CN(C(=O)c1scc3c1OCCO3)C2	0	-2
14	Cc1cc(C)cc(COc2coc(CN3CCN(C(=O)c4cncc(Br)c4)CC3)cc2=O)c1	21	13
15	CCN(CC)C(=O)CCCNc1nc(C(F)(F)F)ccc1C#N	3	1
16	c1ccc(-n2cccc2CN2CCCC2c2nc(-c3cccnc3)no2)nc1 (stereo unspecified)	-3	-1
17	Cc1ccccc1C1CCCN1C(=O)c1cnn2ccn(C)c12 (stereo unspecified)	4	3
18	Cc1ccc2c(c1)c(CNC(=O)CCN1CCCCO1)nn2C	12	10
19	CC1CCCN(Cc2nc3c(c(=O)n(C)c(=O)n3C)n2Cc2ccc(Cl)c(Cl)c2)C1 (stereo unspecified)	2	2
20	O=C(Nc1cccc(F)c1)N(CCc1ccccc1)C1CCCC1	3	0
21	O=C(Nc1c(F)cccc1OCc1ccccc1)c1ccoc1	0	-11
22	Cc1ccc(OCCn2c(SCc3cccc4ccccc34)nc3ccccc32)cc1	-19	-22
23	Cc1ccsc1C(=O)C1CCCN(Cc2cc(F)ccc2-n2cccn2)C1 (stereo unspecified)	-1	-3
24	Cc1ccc2nc(-c3ccc(Cl)cc3NC(=O)c3ccccc3F)oc2c1	0	9
25	CC(C)c1nccc(-c2c(-c3ccccc3)ncn2CC2CCCO2)n1 (stereo unspecified)	-1	-1
26	COCC(=O)Nc1cccc(-c2ccc(OC)c3ncccc23)c1	5	3
27	CCOC(=O)C1CCCN(C(=O)c2csc(COc3ccc(C)cc3C)n2)C1 (stereo unspecified)	22	20
28	CCCC(=O)Nc1ncnc2c1ncn2C1O[C@@H]2COP(=O)(O)O[C@H]2[C@H]1OC(=O)CCC (stereo partly specified)	-12	-15
29	Cc1csc(CCCNc2cc(N(C)C)ncn2)n1	-5	-8
30	COc1ccc(N2CCN(Cc3nc4ccccc4nc3C)C(C)C2)cc1 (stereo unspecified)	-4	-7
31	CNC(=O)c1cc(-c2cc(OC)cc(OC)c2)ccc1Cl	9	4
32	CN(Cc1ccccc1)C(=O)c1nn(C)c2c1CC(NCc1ccc(OC(F)(F)F)cc1)CC2 (stereo unspecified)	17	6
33	Cc1ccc(Cl)cc1N1CCN(Cc2ccccc2F)C(C)C1=O (stereo unspecified)	-4	0
34	O=C(NCC1CCCN(Cc2cccc(O)c2)C1)c1cccs1 (stereo unspecified)	-5	-7
35	COc1ccc(CCN(Cc2ccco2)C(=O)CN(C(=O)C2C[C@H]2c2ccccc2)C(C)C)cc1OC (stereo partly specified)	-8	-9
36	COc1cc(CN2C(=O)C3(CCC3)ON=C2c2cccs2)cc(OC)c1	5	4
37	COc1ccc(C(=O)c2ccccc2O)c(O)c1	-12&-2	-17&-7
38	COc1cccc(C(=O)N2CCN(C3c4ccccc4CCc4ccccc43)CC2)c1	-1	5
39	COc1ccc(CCNC(=O)c2cccnc2N2CCN(C(=O)c3c(C)noc3C)CC2)cc1OC	5	-1
40	CN(C)c1cccc(C(=O)N2CCC(c3ccc(O)cc3)CC2)c1	2	0
41	Cc1cc(N2CCCC2)ccc1NS(=O)(=O)c1ccccc1Cl	3	4
42	CCOC(=O)C1CCCN(C(=O)c2cnn(-c3ccc(Cl)c(Cl)c3)c2C)C1 (stereo unspecified)	-4	-4
43	O=C(c1cccc2ccnn12)N(CCO)Cc1nccs1	33	19
44	CC(C)C(=O)Nc1nnc(SCc2c(Cl)cccc2Cl)s1	27	19
45	CCCCCc1ccc(C(=O)N(CCCCC)Cc2nc(C(=O)OCC)cs2)cc1	19	22
46	NC(=O)CN1CCN(S(=O)(=O)c2cccc(Cl)c2)CC1	12	0
47	CCn1cc(CN2CCCC(CCC(=O)N3CCN(Cc4ccccc4)CC3)C2)c(C)n1 (stereo unspecified)	4	0
48	CCCCc1noc(Cn2cnc3ccccc32)n1	0	-6
49	CC(C)(C)c1cc2nc(C(=O)O)cc(-c3ccccc3Cl)n2n1	-7	5
50	O=C(COc1cc(Cl)ccc1Cl)NC1CCN(C2CC2)C1 (stereo unspecified)	-1	-1

#51 COc1cccc(OC)c1CN1CC(O)CN(S(C)(=O)=O)CC1=O (stereo unspecified)
#52 CCCCNC(=O)c1ccc2nc(C)c(N(C)Cc3ccc(NC(C)=O)cc3)n2c1
#53 C=CCn1c(Sc2ccc(S(C)(=O)=O)cc2[N+](=O)[O-])nnc1C1CCCCC1
#54 COC(=O)CCC(=O)NCc1cccc(-c2ncc(-c3ccccc3)[nH]2)c1
#55 Cc1ccc(C)c(OCC(O)CN2C(=O)NC3(CCC(C(C)(C)C)CC3)C2=O)c1C (stereo unspecified)
#56 OCc1ccccc1-c1nccc(C(F)(F)F)n1
#57 CNC(=O)Cc1ccc(Nc2nccc(OC)n2)cc1
#58 Cc1nc(CCC(=O)N2CCc3[nH]nc(-c4cccc5ccccc45)c3C2)n[nH]1
screen / no. | 51 | 52 | 53 | 54 | 55 | 56 | 57 | 58
NPYLR7 ag | 25 | 10 | -1 | 0 | 6 | 1 | 5 | 29
NPYLR7 ag max-min | 35 | -4 | 1 | -4 | 0 | 0 | 3 | 22

#59 COCC(=O)N(Cc1ccco1)Cc1cc(NS(=O)(=O)c2ccc(OC)cc2)ccc1N(C)C
#60 CCOc1ccc(C=NN=C2NC(=O)CS2)cc1
#61 COc1ccc(OC)c(-c2cccc(-c3ccc(NC(=O)c4ccc(C(F)(F)F)nc4C)cc3)n2)c1
#62 Cc1cc(C)c(C)c(SCC(=O)NC(=O)NCC(F)(F)F)c1C
#63 Cc1noc(C)c1CNC(=O)N(CC1CCCCC1)C1CC1
#64 COc1cc(OC)c(CNC(=O)N2CCCCC2C)c(OC)c1 (stereo unspecified)
#65 CCOC(=O)CNC(=O)N1CCN(c2nc(-c3cccc(C(F)(F)F)c3)nc(C)c2Cc2ccccc2)CC1
#66 CC(C)Cn1c(=O)c2ccc(C(=O)NC(C)C)cc2n2c(=O)n(CC(=O)NC(C)(C)C)nc12
screen / no. | 59 | 60 | 61 | 62 | 63 | 64 | 65 | 66
NPYLR7 ag | 1 | -5 | -7 | -5 | -2 | -3 | -3 | 0
NPYLR7 ag max-min | 8 | -12 | -12 | -7 | -4 | -2 | 2 | -4

Exported with each value named: 4 of the compounds above.
66: CC(C)Cn1c(=O)c2ccc(C(=O)NC(C)C)cc2n2c(=O)n(CC(=O)NC(C)(C)C)nc12
- NPYLR7 ag: 0
- NPYLR7 ag max-min: -4
63: Cc1noc(C)c1CNC(=O)N(CC1CCCCC1)C1CC1
- NPYLR7 ag: -2
- NPYLR7 ag max-min: -4
61: COc1ccc(OC)c(-c2cccc(-c3ccc(NC(=O)c4ccc(C(F)(F)F)nc4C)cc3)n2)c1
- NPYLR7 ag: -7
- NPYLR7 ag max-min: -12
65: CCOC(=O)CNC(=O)N1CCN(c2nc(-c3cccc(C(F)(F)F)c3)nc(C)c2Cc2ccccc2)CC1
- NPYLR7 ag: -3
- NPYLR7 ag max-min: 2

Going on with the list:
#67 CCCNC(=O)C(C)NC(=O)NCCc1ccn(-c2ccccc2)n1 (stereo unspecified)
#68 COC(=O)c1csc(CN(CCC(C)C)C(=O)c2ccc(OC)cc2OC)n1
#69 COC(=O)[C@@H]1C[C@@H](NC(=O)c2cn3c4c(cccc4c2=O)CC3)CN1C
#70 CCCC1=NN(C(C)=O)C(C(=O)NC2CC(C)(C)N(C)C(C)(C)C2)O1 (stereo unspecified)
#71 Cc1ccc(Cl)cc1N1CCN(C(=O)c2ccc([N+](=O)[O-])cc2)C(C)C1=O (stereo unspecified)
#72 CC(C)(C)OC(=O)N(CC1CC1)C1CCNCC1
#73 Cc1ccc(NC(=O)Cn2ccnc2)cc1S(=O)(=O)N1CCCCC1
#74 CC(C)Cn1nnnc1SCCS(=O)c1ccccc1 (stereo unspecified)
screen / no. | 67 | 68 | 69 | 70 | 71 | 72 | 73 | 74
NPYLR7 ag | 0 | -5 | 18 | 17 | -11 | 2 | 13 | 1
NPYLR7 ag max-min | -3 | -12 | 5 | 9 | -9 | 2 | 8 | 1

#75 CCOC(=O)C1(CCOc2ccccc2)CCCN(C(=O)CSC)C1 (stereo unspecified)
#76 COc1ccc(CCCCC(=O)NC(C)c2cccnc2)cc1 (stereo unspecified)
#77 Cc1nc(N2CCC(C(=O)NCC3CCCO3)CC2)c2c(C)c(C)sc2n1 (stereo unspecified)
#78 NC(=O)CCOc1ccc(NC(=O)CC2CCc3ccccc32)cc1 (stereo unspecified)
#79 NS(=O)(=O)c1cc(C(=O)O)cs1
#80 COc1ccc(F)cc1-c1ccc(C(C)N2CCOCC2)cc1 (stereo unspecified)
#81 CCc1nc(C)sc1CN1CCC=C(CC(C)NC(C)=O)C1 (stereo unspecified)
#82 C=CCNC(=O)c1ccccc1N1CCC(NC(=O)c2ccccc2Cl)CC1
screen / no. | 75 | 76 | 77 | 78 | 79 | 80 | 81 | 82
NPYLR7 ag | 2 | -5 | 1 | 1 | 1 | -1 | 3&1 | -3
NPYLR7 ag max-min | -2 | -6 | 14 | -7 | 7 | -3 | 3&0 | 3

18 structures out of the list, arranged by length of the SMILES, largest number first:
#65 CCOC(=O)CNC(=O)N1CCN(c2nc(-c3cccc(C(F)(F)F)c3)nc(C)c2Cc2ccccc2)CC1
#61 COc1ccc(OC)c(-c2cccc(-c3ccc(NC(=O)c4ccc(C(F)(F)F)nc4C)cc3)n2)c1
#59 COCC(=O)N(Cc1ccco1)Cc1cc(NS(=O)(=O)c2ccc(OC)cc2)ccc1N(C)C
#69 COC(=O)[C@@H]1C[C@@H](NC(=O)c2cn3c4c(cccc4c2=O)CC3)CN1C
#58 Cc1nc(CCC(=O)N2CCc3[nH]nc(-c4cccc5ccccc45)c3C2)n[nH]1
#70 CCCC1=NN(C(C)=O)C(C(=O)NC2CC(C)(C)N(C)C(C)(C)C2)O1 (stereo unspecified)
#77 Cc1nc(N2CCC(C(=O)NCC3CCCO3)CC2)c2c(C)c(C)sc2n1 (stereo unspecified)
#82 C=CCNC(=O)c1ccccc1N1CCC(NC(=O)c2ccccc2Cl)CC1
#73 Cc1ccc(NC(=O)Cn2ccnc2)cc1S(=O)(=O)N1CCCCC1
#62 Cc1cc(C)c(C)c(SCC(=O)NC(=O)NCC(F)(F)F)c1C
screen / no. | 65 | 61 | 59 | 69 | 58 | 70 | 77 | 82 | 73 | 62
NPYLR7 ag | -3 | -7 | 1 | 18 | 29 | 17 | 1 | -3 | 13 | -5
NPYLR7 ag max-min | 2 | -12 | 8 | 5 | 22 | 9 | 14 | 3 | 8 | -7

#67 CCCNC(=O)C(C)NC(=O)NCCc1ccn(-c2ccccc2)n1 (stereo unspecified)
#78 NC(=O)CCOc1ccc(NC(=O)CC2CCc3ccccc32)cc1 (stereo unspecified)
#80 COc1ccc(F)cc1-c1ccc(C(C)N2CCOCC2)cc1 (stereo unspecified)
#63 Cc1noc(C)c1CNC(=O)N(CC1CCCCC1)C1CC1
#76 COc1ccc(CCCCC(=O)NC(C)c2cccnc2)cc1 (stereo unspecified)
#57 CNC(=O)Cc1ccc(Nc2nccc(OC)n2)cc1
#56 OCc1ccccc1-c1nccc(C(F)(F)F)n1
#79 NS(=O)(=O)c1cc(C(=O)O)cs1
screen / no. | 67 | 78 | 80 | 63 | 76 | 57 | 56 | 79
NPYLR7 ag | 0 | 1 | -1 | -2 | -5 | 5 | 1 | 1
NPYLR7 ag max-min | -3 | -7 | -3 | -4 | -6 | 3 | 0 | 7

(next part)
#83 NC(=S)N/N=C\c1ccc(-c2ccc(Cl)cc2)o1
#84 Cc1ccc(-n2nc(-c3ccccc3Cl)cc2C(=O)N(CCc2ccccc2)Cc2ccccc2)cc1
#85 O=C(c1ccc(CO)o1)N1CCOC(c2ccc(Cl)cc2)C1 (stereo unspecified)
#86 CCn1nnc2c(N3CCN(c4cccc(C(F)(F)F)c4)CC3)ncnc21
#87 Cc1cccc(C)c1Nc1c(C(C)C)nc2ccc(Br)cn12
#88 CCOc1cc(S(=O)(=O)N2CCN(CCO)CC2)ccc1Br
#89 CN1C(=O)C2ON(c3ccc(Cl)cc3)C(c3cccs3)C2C1=O (stereo unspecified)
#90 Cc1sc2ncnc(Sc3ncnc4sc(C)c(C)c34)c2c1C
#91 CCOC(=O)C1(CCc2ccccc2)CCN(C(=O)CCc2c(C)noc2C)CC1
#92 Cc1ccc(Oc2ncc(Cl)cc2Cl)c([N+](=O)[O-])n1
#93 CCCCn1c(N)c(N(CC)C(=O)C=Cc2ccco2)c(=O)[nH]c1=O
screen / no. | 83 | 84 | 85 | 86 | 87 | 88 | 89 | 90 | 91 | 92 | 93
NPYLR7 ag | -4 | 0 | 4 | 8 | -8 | 7 | 14 | -3 | 6 | -1 | 1
NPYLR7 ag max-min | -8 | 2 | -4 | 4 | -6 | 2 | 5 | -5 | 3 | -2 | 1

Screening results: PubChem BioAssay, Fisher Drug Discovery Resource Center
